Compound activity deposited in PubChem by several laboratories.
GALR2 agonist = activates the human galanin receptor 2 | hit rate 0.48% among 140,000 | O43603 | AID 803 | activation, %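 (tested at 5 µM)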 | GALR2-expressing cells, agonist activation read-out;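 active = above mean plus 3 SD of all compounds, about 5% in these data, not always enough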;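 also: 0% = vehicle buffer wells and 100% = reference agonist at full effect; tested in CHO reporter cells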
Target sequence (O43603 whole entry, looked up): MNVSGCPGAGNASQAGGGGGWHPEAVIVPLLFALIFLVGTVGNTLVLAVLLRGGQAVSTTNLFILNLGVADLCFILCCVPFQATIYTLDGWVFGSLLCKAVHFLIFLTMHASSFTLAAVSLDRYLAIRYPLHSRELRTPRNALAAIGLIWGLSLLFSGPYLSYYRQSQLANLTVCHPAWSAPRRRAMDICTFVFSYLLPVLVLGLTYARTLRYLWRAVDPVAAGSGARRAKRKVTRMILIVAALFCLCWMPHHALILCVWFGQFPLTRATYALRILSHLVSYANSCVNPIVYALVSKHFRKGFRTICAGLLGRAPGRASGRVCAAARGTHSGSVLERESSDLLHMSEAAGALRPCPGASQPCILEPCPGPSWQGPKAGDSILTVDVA
RGS16-Gao HTS = modulates binding between human RGS16 and Galphao; O15492+P09471; bead-based flow cytometry RGS16-Galphao binding, fluorescence; actives lie on both sides; binding response (% of control), % at 10 µM; hit rate 0.38% among 220,000; AID 1441;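 active = below 25% or above 175%, edge rows of some plates excepted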;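 also: Galphao activated by GDP with aluminum fluoride before binding; 100% = wells without compound and 0% = beads without RGS; some results beyond the cut were filed as inactive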
Target sequence (O15492 whole entry, looked up): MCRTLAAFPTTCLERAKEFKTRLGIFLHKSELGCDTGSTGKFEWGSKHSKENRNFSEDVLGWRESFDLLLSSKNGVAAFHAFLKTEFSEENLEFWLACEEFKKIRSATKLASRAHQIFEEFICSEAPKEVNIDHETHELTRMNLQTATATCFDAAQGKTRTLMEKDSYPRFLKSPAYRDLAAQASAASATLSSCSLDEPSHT
Target sequence (P09471 whole entry, looked up): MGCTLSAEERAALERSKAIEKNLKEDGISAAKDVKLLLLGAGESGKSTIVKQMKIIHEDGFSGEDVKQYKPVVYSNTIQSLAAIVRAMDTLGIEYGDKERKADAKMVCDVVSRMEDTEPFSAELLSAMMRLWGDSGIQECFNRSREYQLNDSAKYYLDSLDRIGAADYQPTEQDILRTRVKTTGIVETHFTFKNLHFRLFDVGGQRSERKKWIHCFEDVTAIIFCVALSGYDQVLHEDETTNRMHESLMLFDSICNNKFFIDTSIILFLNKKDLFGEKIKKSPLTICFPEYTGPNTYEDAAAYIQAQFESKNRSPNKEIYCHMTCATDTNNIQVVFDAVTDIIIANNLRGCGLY
PKD1 inh = blocks activity of human protein kinase D1 | Q15139 | PKD1 kinase fluorescence polarization assay | inhibition, %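 (about 10 µM by stock and volumes)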 | hit rate 0.056% among 200,000 | AID 797;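 active = inhibition of 50% or more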;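 also: controls were vehicle for no effect and a reference inhibitor for full effect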
Insulin prom inh = TRM-6 insulin promoter activity inhibition; TRM-6 cells (human fetal islet line), insulin promoter-eGFP reporter, imaging; reporter expression induced with tamoxifen; inhibition, % at 2 µM; hit rate 0.9% among 130,000;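 active = inhibition above the mean plus 3 SD, with well images judged a real hit on visual review, cut at about 60% in these data, passing the limit was not always enough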
HSV augment = increases HSV replication in cells; AID 1956; HSV replication augmentation in cells, fold increase; hit rate 0.005% among 220,000; maximum fold increase;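 active = peak rise of 1.5-fold or more in the series; tested in PC3 cells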;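 also: first round at 10 µM; read as green reporter fluorescence; hits show the peak of a series up to 25 µM; 1 = signal of infected wells without compound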
Insulin prom inh cell count = recorded beside Insulin prom inh, whose call it bears; normalized cell count, %; measured here: cell count, toxicity; reference of the scale not given here;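 cells exposed to compound for 48 h; stained nuclei by imaging scaled within each plate; lower means fewer cells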
HSV augment primary fold = second read-out of HSV augment, no call of its own (marks repeat the call); fold increase; compound at 10 µM; measured here: primary screen fold increase 10 uM; tested in PC3 cells;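 GFP signal in the first replicate; 1 = infected wells without compound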
An asterisk follows results filed as active; i = inactive; / = no result given.

structure	GALR2 agonist	RGS16-Gao HTS	PKD1 inh	Insulin prom inh	Insulin prom inh cell count	HSV augment	HSV augment primary fold
Cn1c(N)c(C(=O)COC(=O)c2cc(C(F)(F)F)nc3ccccc23)c(=O)n(C)c1=O	-3.4	84.2	-0.5	-10.0	135.1	/	/
Cc1ccc(Cl)cc1N1CCN(S(=O)(=O)c2ccc3c(c2)oc(=O)n3C)CC1	-1.5	100.5	-7.0	/	/	i	0.88
CCC(=O)Nc1cc(C(F)(F)F)ccc1N1CCCC1	/	98.5	-0.7	50.0	112.6	i	0.97
COc1ccc2c(=O)cc(-c3ccccc3F)oc2c1	/	97.2	/	/	/	i	0.85
COc1ccc(-n2cc(-c3ccccc3)c3c(=O)[nH]cnc32)cc1	0.5	107.9	-9.1	-37.5	82.9	i	0.93
Cc1ccc2nc(Cl)c(/C=C/C(=O)c3ccco3)cc2c1	/	104.1	/	/	/	i	1.17
CCOc1ccc(OCC(O)CNC2CCN(Cc3ccccc3)CC2)cc1 (stereo unspecified)	0.0	107.7	-13.6	/	/	i	0.88
Cc1noc(C)c1COc1cccc(C(=O)NCc2ccccc2Cl)c1	0.8	181.3	-2.2	-17.9	135.5	i	0.96
COc1cccc(C(=O)OCC(=O)NCCc2ccccc2)c1OC	/	113.2	2.8	-4.8	77.0	i	1.2
CC1C(=NO)C(C)C(c2ccc(N(C)C)cc2)NC1c1ccc(N(C)C)cc1 (stereo unspecified)	-1.7	104.4	-6.8	/	/	/	/
CCOC(=O)CCCNC(=O)CCNC(=O)c1ccc(OCC)cc1	0.8	103.1	-1.6	30.0	97.8	i	1.04
CC1(C)CC(=O)C/C(=N\NC(=S)NCc2ccccc2)C1	/	105.2	-7.7	0.0	104.0	i	0.93
N#CC1=C2N=C(N)c3ccccc3N2C2=C(C(=O)CCC2)C1c1ccc(Cl)cc1 (stereo unspecified)	-1.1	100.3	3.5	-31.7	93.5	/	/
COc1ccc(C2=C(Nc3ccccc3)c3ccccc3C2=O)cc1	-1.6	103.8	-1.4	-8.8	110.1	i	0.96
N#Cc1c(NC(=O)CCCC(=O)O)sc2c1CCCCC2	-1.6	98.6	-0.3	-30.8	43.8	i	1.15
Cc1nc(Cl)c(C#N)c2c1CCCC2	/	86.4	/	/	/	i	0.96
CCOc1ccccc1N(CC(=O)NCCOC)C(=O)CCC(=O)Nc1ccccn1	/	112.7	-5.0	/	/	i	0.97
O=C(CN1CC(=O)Nc2ccccc21)Nc1ccc(F)c(F)c1	/	98.6	-3.2	-55.6	175.8	i	1.01
CC(=O)c1cc(-c2ccccc2)n(CC(=O)N2CCCCC2)c1C	-0.4	86.4	8.7	/	/	i	0.98
O=C(c1ccc(OC2CCN(Cc3ccccn3)CC2)cc1)N1CCCCO1	/	100.8	8.8	/	/	i	0.8
Cc1ccc(NC(=O)c2ccc3c(c2)C(=O)N(CC2CCCO2)C3=O)cc1C (stereo unspecified)	/	109.0	4.7	33.3	80.5	i	1.04
O=c1c(Br)c(Br)cnn1-c1ccccc1	/	96.8	-2.2	/	/	i	0.57
CC(=O)N1CCCc2cc(S(=O)(=O)N(CC(C)C)CC(C)C)ccc21	0.2	104.7	-3.9	9.4	102.3	i	0.867
O=C(NN1CCOCC1)c1cc(-c2ccncc2)nc2ccccc12	/	99.8	-1.8	/	/	i	0.93
Cc1ccc(N(C(=O)Cc2cccs2)C(C(=O)NCC2CCCO2)c2ccncc2)cc1 (stereo unspecified)	/	102.3	0.3	-21.4	99.1	i	1.01
CCOC(=O)N1CCN(C2CC(=O)N(c3ccccc3)C2=O)CC1 (stereo unspecified)	-1.0	104.3	-3.3	15.2	122.8	i	0.82
c1ccc(Nc2nc3ccccc3n3cnnc23)cc1	-1.1	100.9	-3.3	40.0	189.1	i	0.91
Cc1cc(NC(=O)CSc2ncnc3ccccc23)no1	-2.4	102.0	-1.1	/	/	i	0.93
CCCNC(=O)C1CC(c2ccc(C(F)(F)F)cc2)=NO1 (stereo unspecified)	/	103.6	/	/	/	i	0.8
Cc1cc(C)cc(OCC(O)CN2C(=O)NC(C)(C)C2=O)c1 (stereo unspecified)	-2.3	101.5	0.5	/	/	i	0.9

Quoted from the listing:
RGS16-Gao HTS result of CC1(C)CC(=O)C/C(=N\NC(=S)NCc2ccccc2)C1 = 105.2
HSV augment primary fold result of CCOc1ccccc1N(CC(=O)NCCOC)C(=O)CCC(=O)Nc1ccccn1 = 0.97
PKD1 inh result of O=C(c1ccc(OC2CCN(Cc3ccccn3)CC2)cc1)N1CCCCO1 = 8.8

Going on with the list.
structure	GALR2 agonist	RGS16-Gao HTS	PKD1 inh	Insulin prom inh	Insulin prom inh cell count	HSV augment	HSV augment primary fold
O=C1CC(N2CCN(C/C=C/c3ccccc3)CC2)C(=O)N1CCc1ccccc1 (stereo unspecified)	-1.1	96.0	0.9	18.2	99.5	i	0.75
CC(=O)N1CCN(c2ccc([N+](=O)[O-])cc2)CC1	/	118.6	3.4	33.3	77.6	i	1
CCCNC(=O)CSc1nnc(-c2ccccc2Br)n1-c1cccc(C(F)(F)F)c1	-1.5	105.5	-15.0	/	/	i	1.01
c1ccc(-n2cnc3cc(NCc4ccncc4)ccc32)cc1	-2.2	80.1	-3.0	/	/	i	0.67
CSc1nnnn1-c1cccc(O)c1	-3.3	102.3	-2.1	27.3	95.3	i	0.97
Cc1ccccc1CS(=O)(=O)Cc1ccc(C(=O)NCCCN2CCCC2=O)o1	-1.2	107.0	13.4	0.0	58.1	/	/
COc1ccc(C(=O)/C=C/c2ccccc2OC)c(OC(=O)c2ccc([N+](=O)[O-])cc2)c1	-0.3	/	-1.6	-25.0	53.9	i	0.94
O=C(CN1C(=O)C(c2ccc(F)cc2)=NC12CCCC2)Nc1ccc(F)cc1	/	103.6	0.4	/	/	i	0.98
CCOC(=O)C1=C(C)NC(=O)NC1c1ccc(Br)s1 (stereo unspecified)	0.1	96.4	-4.6	-30.0	163.7	i	0.98
S=c1[nH]nc(Cc2ccccc2)n1-c1cccc2ccccc12	-2.1	98.9	-8.4	-14.3	75.1	i	0.92
C=CCn1c(COc2cccc3cccnc23)nnc1SCC(=O)O	-0.8	101.1	-10.1	0.0	54.5	i	1.04
Cc1cc(C)nc(Nc2nc3ccccc3[nH]2)n1	-1.7	105.2	1.5	6.9	53.8	i	0.91
CCOC(=O)c1ccc(NS(=O)(=O)c2cc(-c3nnnn3C(C)C)ccc2OC)cc1	0.0	96.7	-14.5	/	/	i	1.03
O=C(Nc1nc(N2C(=O)c3ccccc3C2=O)n(-c2ccccc2)n1)c1ccccc1	-2.2	93.2	-4.4	11.1	72.2	i	0.94
CS/C(=C\[N+](=O)[O-])Nc1ccc(C)cc1	/	103.4	-4.6	53.9	132.2	/	/
CC1(C)Cc2c(c(N3CCOCC3)nc3sc4c(N5CCOCC5)nnnc4c23)CS1	-1.0	101.4	-5.6	/	/	/	/
CCOc1ccc(-c2nnn(CC(=O)N3CCN(c4ccc(OC)cc4)CC3)n2)cc1OCC	-1.4	100.4	-6.6	/	/	i	0.92
CCC(=O)N1C(C(=O)NCc2ccc(OC)cc2)CSC1c1ccc(OC)cc1 (stereo unspecified)	-2.5	94.3	-4.5	/	/	i	1.01
O=C(CCc1nnc(-c2ccc(-c3ccccc3)cc2)o1)N1CCCCC1	/	97.9	4.3	/	/	i	1.09
COc1ccccc1Nc1nc(NCCO)c2ccccc2n1	-0.2	104.2	0.6	0.0	117.0	i	0.9
CN(C)CCNC(=O)c1cc2cc(Br)ccc2oc1=O	-0.7	114.3	-12.8	/	/	i	1.06
CC(C)c1cccc(C(C)C)c1NC(=O)COC(=O)C1=COCCO1	/	100.6	0.5	/	/	i	0.9
CCCn1c(=O)c2ccccc2n2c(SCCOc3ccccc3F)nnc12	-1.1	102.0	-3.1	19.4	116.4	i	0.83
CC1(c2ccccc2)NC(=O)N(CC#N)C1=O (stereo unspecified)	/	100.8	-12.4	/	/	i	1.06
Cc1ccc(CNC(=O)CN(c2cccc([N+](=O)[O-])c2)S(C)(=O)=O)cc1	/	93.9	-4.0	/	/	i	1.2
O=C(Cc1cccs1)N1CCN(c2nc(-c3ccc(Cl)cc3)cs2)CC1	-1.1	103.1	-15.1	-25.0	164.6	i	0.96
COc1ccc(-c2nnc(-c3ccc(OCC(C)C)cc3)o2)cc1	13.5*	91.4	-6.8	-25.7	61.2	i	1.18
CN(C(=O)CSc1nc2ccccc2s1)c1c(N)n(Cc2ccccc2)c(=O)[nH]c1=O	/	100.4	-9.6	-33.3	137.0	i	0.96
Cc1cccc(C)c1NC(=O)CCCSc1nnc(-c2ccco2)o1	1.2	109.6	-4.8	/	/	i	0.97
O=C(NC(=S)Nc1ccc2c(c1)OCCO2)c1ccccc1	-0.5	102.1	-4.9	/	/	i	1.03

Part of the list above in a different format.
CCOC(=O)CCCNC(=O)CCNC(=O)c1ccc(OCC)cc1
  GALR2 agonist: 0.8
  RGS16-Gao HTS: 103.1
  PKD1 inh: -1.6
  Insulin prom inh: 30.0
  Insulin prom inh cell count: 97.8
  HSV augment: i
  HSV augment primary fold: 1.04

CC1(c2ccccc2)NC(=O)N(CC#N)C1=O (stereo unspecified)
  GALR2 agonist: /
  RGS16-Gao HTS: 100.8
  PKD1 inh: -12.4
  Insulin prom inh: /
  Insulin prom inh cell count: /
  HSV augment: i
  HSV augment primary fold: 1.06

The list goes on.
structure	GALR2 agonist	RGS16-Gao HTS	PKD1 inh	Insulin prom inh	Insulin prom inh cell count	HSV augment	HSV augment primary fold
CC(NC(=O)Cc1cccs1)c1ccccc1 (stereo unspecified)	/	102.0	-8.0	/	/	i	0.76
COc1cc(CC(=O)Nc2ccccc2N2CCOCC2)cc(OC)c1OC	/	102.6	-3.8	-33.3	107.1	i	1.08
CCOC(=O)N1CCC(NC(=O)CCc2c(C)nc3ncnn3c2C)CC1	-4.6	100.2	19.7	-18.8	70.7	i	0.97
Cc1cc(C)n(CCCNC(=O)c2ccc3c(c2)NC(=O)CS3)n1	-1.5	100.5	-1.0	40.5	163.9	i	0.8
Cc1ccc(NC(=O)C(CC(C)C)NC(=O)C2CCC(C)CC2)nc1 (stereo unspecified)	-1.4	102.8	-6.0	-37.5	64.5	i	1.19
O=C(O)Cc1c(C(=O)O)nnn1-c1ccc(Cl)cc1Cl	/	94.0	-3.4	/	/	i	1.05
COc1ccc([N+](=O)[O-])cc1NC(=O)C(C)OC(=O)c1ccccc1C(=O)c1ccc(Cl)cc1 (stereo unspecified)	-0.6	106.8	-6.1	-61.3	0.9	i	0.98
COC(=O)C1CCN(c2cc(=O)n(-c3ccccc3Cl)c(=O)[nH]2)CC1	-1.6	94.7	5.5	-6.2	106.2	i	0.72
O=C(O)c1ccccc1SCc1nc2ccccn2c1Br	/	99.0	-0.9	/	/	i	1
Cc1ccc(NS(=O)(=O)c2ccc(OCC(=O)NCc3ccncc3)cc2)cc1	-0.2	82.3	-7.5	/	/	i	0.87
CC(C)CC(NC(=O)c1ccccc1NC(=O)c1ccccc1)C(=O)O (stereo unspecified)	/	97.0	2.9	5.9	108.3	i	1.09
COc1ccc(N2C(=O)CC(n3c(CCCCO)nc4ccccc43)C2=O)cc1 (stereo unspecified)	0.5	99.3	-5.4	10.5	43.6	i	0.91
CCC1(C(=O)O)NC(c2cc(OC)ccc2O)C2C(=O)N(Cc3ccccc3)C(=O)C21 (stereo unspecified)	-1.8	131.4	-15.7	/	/	i	0.82
N#C/C(=C\c1cc2ccccc2nc1N1CCOCC1)C(=O)Nc1ccc(N2CCOCC2)cc1	-0.6	95.0	4.0	-9.7	154.0	i	1.01
Cc1c(C#N)c(=O)c(-[n+]2ccccc2)c([S-])n1-c1ccc(Cl)cc1	/	102.5	/	/	/	i	1.15
c1ccc(-n2ncc3c(N4CCCC4)ncnc32)cc1	-2.1	100.7	-3.5	/	/	i	0.8
CCOc1ccccc1N(CC(=O)Nc1c(C)n(C)n(-c2ccccc2)c1=O)S(=O)(=O)c1ccccc1	/	95.4	-6.8	/	/	i	0.95
O=C(CN1CCN(C(=O)c2ccccc2F)CC1)Nc1ccc(Br)cc1	-1.2	99.5	-12.1	-7.7	174.3	i	0.87
CCCOc1ccc(Br)cc1CSC(=N)N	-1.1	102.0	3.7	25.8	105.4	i	0.75
CCOC(=O)Cc1csc(NC(=S)NC(=O)c2cc(OC)c(OC)c(OC)c2)n1	/	100.3	/	/	/	i	0.88
CCN1CCc2nc3ccccc3c(C(=O)Nc3ccc(C#N)cc3)c2C1	/	104.6	-6.2	/	/	i	0.98
COc1cccc2sc(Nc3nc4ccc(NC(C)=O)cc4s3)nc12	10.3*	119.6	-4.3	55.6	98.5	i	0.71
C/C=C/c1ccc(OCC(O)CN2CCCCCCC2)c(OC)c1 (stereo unspecified)	/	98.6	-10.9	-46.3	144.4	i	0.96
